TRPML1 agonist: qHTS for Agonists of the Human Mucolipin Transient Receptor Potential 1 (TRPML1); actives 0.12% (n = 410,000); TRPML1-expressing cells, Ca2+ dye fluorescence, FDSS; host cell line not named in the record; reference of the full effect not given here; activation, % (no concentration beside the values); in the data active = activation above about 50%; inconclusive = about 30% to 50%; inactive = below about 30%; also: 0% is about no effect; the text of the record puts the active cut at 80%
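Tet-induced TRPML1-DL cells, 1,500 per well, cultured overnight, were loaded with a no-wash Ca2+ dye for 45–90 min. Calcium fluorescence was recorded on the FDSS for 110 s after compound addition, before the EC80 agonist (4 uM 54-4) was added.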
PINK1 modulator: A Quantitative High throughput Screen to Identify Chemical Modulators of PINK1 Expression | PINK1 immunofluorescence, high-content cytometry, 24 h | Potency, µM (highest dose often 76.6 µM), inactives show at the highest dose activation (PINK1 increase), most hits filed as activators | actives 0.2% (n = 410,000) | AID 624263, 2012; active = well fitted activation curve with a large enough effect; inconclusive = small, poorly fitted or top-dose-only effect; inactive = flat fitted curve, though single readings scatter; cell line not stated here;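 also: potency is read from the fitted curve at half-maximal effect; % of control where 0% means no effect; nearly all actives have a fitted effect of over 65% in size; a mitochondrial uncoupler was the plate control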
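PINK1 protein, normally rapidly degraded, was detected by immunofluorescence after 24 hour compound treatment of a stable cell line. Titration data (5 concentrations) came from laser-scanning cytometry, with CCCP-treated wells as controls.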
TRPML1 blocker: qHTS for Inhibitors of the Human Mucolipin Transient Receptor Potential 1 (TRPML1). TRPML1-inducible cells, Ca2+ dye fluorescence, FDSS; hits give low values; inhibition of EC80 agonist-evoked calcium signal. activity change, negative = inhibition, % (test concentration not listed). actives 0.02% (n = 390,000). AID 624415, 2012; in the data active means activity change below about -50%; inconclusive means about -30% to -50%; inactive means above about -30%;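 also: stimulus is agonist 54-4 at its EC80 concentration; % is scaled to controls: 0 for no effect and ±100 for the full control effect; compound concentration not given in the record; the text of the record puts the active cut at -80%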
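TRPML1-DL cells, Tet-induced overnight (~16 h, 37 °C) at 1,500 cells/well, were loaded with Ca8 no-wash dye plus quencher for 45-90 min at room temperature. Compounds were pinned during FDSS kinetic reading; agonist 54-4 at EC80 (4 uM final) then added.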
TRPV1 PAM: HTS Assay for Compounds that Act as Potentiators of the Vanilloid Receptor 1. TRPV1-expressing cells, Fluo-8 calcium influx, capsaicin EC20 potentiation; host cell line not named in the record; control for the full effect not named in the record. potentiation, % at 8.33 µM. actives 0.02% (n = 320,000). AID 540277, 2011; active means potentiation above 80%; inconclusive means 30% to 80%; inactive means below 30%; also: 0% is about no effect
Target sequence (Q8NER1 whole entry, looked up): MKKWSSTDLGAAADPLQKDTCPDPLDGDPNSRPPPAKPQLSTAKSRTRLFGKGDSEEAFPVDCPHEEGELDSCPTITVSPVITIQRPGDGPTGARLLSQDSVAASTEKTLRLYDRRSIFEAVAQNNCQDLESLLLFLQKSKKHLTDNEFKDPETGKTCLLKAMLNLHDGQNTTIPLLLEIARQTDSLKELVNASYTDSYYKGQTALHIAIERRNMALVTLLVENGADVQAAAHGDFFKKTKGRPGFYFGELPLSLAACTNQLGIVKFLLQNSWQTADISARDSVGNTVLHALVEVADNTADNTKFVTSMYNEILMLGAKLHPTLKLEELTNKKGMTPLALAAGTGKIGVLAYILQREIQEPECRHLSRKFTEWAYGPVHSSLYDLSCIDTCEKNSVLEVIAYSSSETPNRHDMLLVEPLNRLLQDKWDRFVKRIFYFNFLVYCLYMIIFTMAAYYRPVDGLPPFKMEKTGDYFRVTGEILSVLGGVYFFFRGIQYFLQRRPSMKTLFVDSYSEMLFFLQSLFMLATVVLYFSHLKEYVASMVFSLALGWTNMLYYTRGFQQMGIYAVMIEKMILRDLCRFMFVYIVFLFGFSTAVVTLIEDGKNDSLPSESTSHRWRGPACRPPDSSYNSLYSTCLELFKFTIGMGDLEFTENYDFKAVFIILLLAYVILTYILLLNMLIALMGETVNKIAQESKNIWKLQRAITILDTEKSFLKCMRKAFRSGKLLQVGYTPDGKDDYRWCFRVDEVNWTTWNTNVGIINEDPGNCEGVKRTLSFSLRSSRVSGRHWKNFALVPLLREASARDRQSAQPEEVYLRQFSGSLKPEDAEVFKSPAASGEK
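Cells expressing TRPV1 were dye-loaded with Fluo-8 and read kinetically: 10 s baseline, 3 min after compound (agonist portion), then 2 min after EC20 capsaicin (allosteric enhancer portion). Calcium-bound dye fluorescence at 480/520 nm.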
Sfp PPTase inh: qHTS Assay for Inhibitors of Bacillus subtilis Sfp phosphopantetheinyl transferase (PPTase) | 4'-phosphopantetheinyl transferase ffp (Bacillus subtilis), Q9F4F7 | actives 3.5% (n = 310,000) | Biochemical Sfp PPTase activity, qHTS | Potency, µM, for the others: max response, negative = inhibition, most hits filed as inhibitors; active = well fitted inhibition curve with a large enough effect; inconclusive = small, poorly fitted or top-dose-only effect, or another doubt; inactive = no such curve, though single readings can be large or run the other way;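 also: the enzyme is Sfp with the accession as filed and its product quenches rhodamine fluorescence; potency is read from the fitted curve at half-maximal effect; 0% = enzyme reaction without inhibitor and -100% = no enzyme wells; top concentration of the series not given in the record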
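With Hepes-Na pH 7.6 buffer containing 10 mM MgCl2, Sfp (15 nM) modified BHQ-2-YbbR (12.5 uM) using rhodamine-CoA (5 uM). Two reads 30 minutes apart at 525/598 nm yielded each well's rate.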
Menin MLL FP FL: qHTS Assay for Inhibitors Targeting the Menin-MLL Interaction in MLL Related Leukemias: Competition With Fluorescein Labeled MLL-derived Peptide; Fluorescence polarization, fluorescein-MLL peptide displacement from menin; FP activity change, % at 61.4 µM; 290,000 tested, under 10 active; inconclusive = falling polarisation curve, or a change in total fluorescence; inactive = total fluorescence flat and polarisation flat or rising; no compound was filed as active; the % refers to the polarisation; negative = inhibition;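 also: % of control where 0% means no effect; inhibitors lower the polarisation; unlabelled MLL peptide was the positive control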
ClpP mod: qHTS Assay for Activators of ClpP | ATP-dependent Clp protease proteolytic subunit (Bacillus subtilis (strain 168)), P80244 | purified B. subtilis ClpP, FRET peptide cleavage, 20 min | Potency, µM (doses to about 57.5 µM), without a hit: at the top dose activity change, negative = active | actives 1.9% (n = 340,000); active = well fitted falling curve with a large enough effect; inconclusive = small, poorly fitted or top-dose-only effect; inactive = no such curve, though single readings can be large or run the other way; also: potency is read from the fitted curve at half-maximal effect; the source files actives as falling curves though it sought activators and does not explain the sign; nearly all actives have a fitted effect of over 65% in size; many hits overshoot -100%
Target sequence (P80244 whole entry, looked up): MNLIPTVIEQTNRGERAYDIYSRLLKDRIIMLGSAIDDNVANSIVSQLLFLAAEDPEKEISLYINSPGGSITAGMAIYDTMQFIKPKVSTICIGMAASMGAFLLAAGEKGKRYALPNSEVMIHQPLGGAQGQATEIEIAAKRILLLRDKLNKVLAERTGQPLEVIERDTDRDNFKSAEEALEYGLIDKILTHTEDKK
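Buffer: 100 mM Tris/HCl pH8, 100 mM KCl, 0.05% low protease BSA, 2.5% glycerol, 0.01% Tween-20. ClpP 10 microg/mL final; 20 min RT; delta FRET normalized to ADEP and DMSO controls.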
* = called active by the depositor; ? = inconclusive; . = no result given; & = joins results of further samples; [ ] = remark or other dose.

SMILES	TRPML1 agonist	PINK1 modulator	TRPML1 blocker	TRPV1 PAM	Sfp PPTase inh	Menin MLL FP FL	ClpP mod
Cc1cc(Cl)ccc1OCC(=O)OC(C)C(=O)N(C)C (configuration not stated)	-0.6	-1.0%	8	-10	0%	-1.0	0.7%
Cc1cccc(NC(=O)CN2C(=O)CCn3nc(-c4cccn4C)cc32)c1C	0.9	5.1%	14	.	.	.	0.0%
Cc1ccc(CNC(=O)c2c(O)nc3cc(C)ccn3c2=O)cc1	0.0	3.1%	15	.	.	.	-11%
CCc1ccccc1C1=CC(=O)C[C@H](c2ccc(OC)cc2)C1	3.2	0.3%	13	.	.	.	0.5%
Cc1c(Cl)cccc1NC(=O)C(=O)NNS(=O)(=O)c1ccc(F)cc1	1.2	-0.2%	-16	15	20%	-0.8	1.2%
Cc1cc([N+](=O)[O-])cnc1NC(C)c1ccccc1 (configuration not stated)	0.8	3.4%	-13	-6	4%	6.2	3.5%
CC1=CC(C)(C)N(C)C(=O)N1c1ccc(Cl)cc1	2.5	0.8%	-13	14	11%	-2.2	-1.9%
COc1cc2c(cc1OC)-c1nnnn1C(C)(C)C2	-0.3	6.2%[38.3 µM]	0	13	-3%	2.2	-2.8%
COc1ccc(/C=N/NC(=O)c2ccoc2C)cc1CN1CCN(c2ccc(F)cc2)CC1	-0.9	3.4%	-8	10	4%	0.0	0.0%
COc1ccc(S(=O)(=O)Nc2ccc3c(c2)C(=O)N([C@@H](C)CO)C[C@H](C)[C@H](CN(C)S(=O)(=O)c2ccc(F)cc2)O3)cc1	-1.0	-0.1%	2	.	.	.	-1.0%
CCOc1cc2[nH]c(=S)n(Cc3ccc(C(=O)N4CCN(C)CC4)cc3)c(=O)c2cc1OCC	-0.9	0.0%	2	-12	-12%	.	-1.6%
CCCNc1nc(C)cc(-c2cc(-c3ccc(Cl)cc3)on2)n1	-1.0	2.6%	12	-1	5%	2.8	?
CN(N)c1ccc2c(C(F)(F)F)cc(C(F)(F)F)nc2n1	2.0	-0.6%	12	-5	?	0.7	.
COc1cccc(NC(=O)c2sc3nc4n(c(=O)c3c2C)CCC4)c1	0.4&-0.4	0.8%&-0.5%	-15&-15	4	0%	.	-2.4%&0.7%
CS(=O)(=O)N(CC(=O)N1CCCCC1)Cc1ccccc1	-0.2	-0.6%	-6	8	1%	1.0	.
COc1nc(-c2ccccc2Cl)ccc1C#N	1.7	-5.9%[38.3 µM]	-5	.	-3%	0.8	-4.2%
CCOC(=O)COc1nc(C)c(Br)c(OC)n1	0.2	-1.5%[38.3 µM]	11	-5	-3%	3.4	-1.6%
Cc1cc2cc(CN(Cc3ccc4c(c3)OCO4)C(=O)c3ccco3)c(=O)[nH]c2cc1C	-0.3	0.0%	-24	-10	-14%	5.6	-10%
CCN(CC)CCC(c1cc(OC)c(OC)c(OC)c1)c1c(OC)cc(OC)c2c(-c3ccccc3)cc(=O)oc12 (configuration not stated)	0.6&0.2	0.0%	9&12	-8	-26%&-5%	1.1&4.0	-0.7%
COc1ccc(NC(=O)Nc2ccc(C(=O)N3CCOCC3)cc2)cc1OC	-0.4	-1.1%	-2	-2	-7%	-7.9	1.2%
COc1cc(OC)c(C(=O)Nc2cc(S(=O)(=O)N3CCOCC3)ccc2N2CCN(C)CC2)cc1OC	0.6	1.1%	3	.	.	.	-0.9%
CCOc1ccc(-c2nnc(Nc3ccc(S(N)(=O)=O)cc3)c3ccccc23)cc1	0.0	4.9%	1	.	.	.	-3.8%
COC(=O)COc1cccc2c(=O)n(CC(=O)N3CCCCC3)ccc12	-0.6	2.3%	-9	-12	5%	6.0	-29%
O=C(O)Cc1ccc(NC(=S)Nc2cccc(Cl)c2Cl)cc1	2.7	-2.2%	-7	-42	-32%	0.3	-9.0%
Cc1c(NC(=O)/C=C/C(=O)O)cccc1[N+](=O)[O-]	-0.3	4.9%[38.3 µM]	11	0	-3%	2.0	-0.5%
CC(=O)N1CCC2(CC1)CCN(c1ccccc1)CC2	.	1.0%	.	.	24%	-2.2	.
Cc1ccc(S(=O)(=O)CCSc2n[nH]c(=O)n2-c2ccccc2)cc1	-0.6	-1.4%	51	12	19%	3.7	-0.8%
CCOc1ccc(/C(C)=N/NC(=O)c2nnn(-c3nonc3N)c2-c2cccs2)cc1	-0.3	5.9%	-1	13	3%	-11	3.7%
CCN(C[C@H]1N[C@@](Cc2ccccc2)(C(=O)OC)[C@H]2C(=O)N(Cc3ccccc3)C(=O)[C@@H]12)S(=O)(=O)c1ccccc1	0.0	0.5%	45	.	.	.	0.1%
CCOc1ccc(C2c3c(oc4ccccc4c3=O)C(=O)N2CCCN2CCOCC2)cc1 (configuration not stated)	0.3	4.3%	-4	5	-3%	6.5	-1.5%
Cc1c(Cl)cccc1NC(=O)C1CCN(c2ncnc3c2nc2n3CCCCC2)CC1	2.6	-8.6%	-7	.	.	.	-4.2%
CN(C)CCNc1nc2sc3c(c2c(=O)n1Cc1ccccc1)CCCCC3	-0.2	-3.0%	-9	-13	-27%	0.0	.
Cc1ccc(S(=O)(=O)Cc2ccc(C(=O)N3CCN(c4cccc(C)c4C)CC3)o2)cc1	0.6&0.6	3.6%&4.0%	6&8	20	-10%	-0.6	1.1%&-2.3%
COCCN1C(=O)C(=O)/C(=C(/O)c2ccc(OC(C)C)cc2)C1c1cccnc1 (configuration not stated)	0.2	2.1%[38.3 µM]	-1	0	11%	2.2	-3.0%
O=C1NN(CCO)C(=S)Nc2ccccc21	0.2	1.6%	-8	.	.	.	-2.7%
Cc1ccc2nc(SCC(=O)NC3CCCC3)nc(=O)n2c1	0.8	0.1%	-1	9	.	.	?
COc1cc(Cl)c(C)cc1NC(=O)c1nn(-c2ccc(C)cc2)c(=O)n(C)c1=O	0.3	1.2%	9	.	.	.	0.5%
CC1(C)Cc2cccc(OCC(=O)N3CCN(S(=O)(=O)c4ccccc4)CC3)c2O1	1.4	-0.4%	-4	-13	5%	2.3	-7.0%
CSc1nc2n(n1)C(c1cccc(F)c1)C(C(=O)Nc1ccc(C)cc1C)=C(C)N2 (configuration not stated)	-0.5	-1.5%	3	14	-5%	-1.2	2.6%
N#CC1=C(N)NC(SCC(=O)c2ccc(Cl)cc2)=C(C#N)C12CCCC2	0.2	-0.9%[38.3 µM]	16	-15	50µM*	18	-3.1%
C=C1CCN([C@@H](Cc2ccccc2)C(=O)NCc2ccc(Cl)c(Cl)c2)S(=O)(=O)c2ccccc21	1.0	1.8%	-5	.	.	.	-2.6%
COC(=O)c1sccc1N/N=C/c1cccc(Oc2ccccc2)c1	-0.2	8.7%	10	11	3%	2.8	-0.4%
CCCN(CCC)c1nc(N)c(C#N)c(CC#N)c1C#N	3.0	18%	21	8	-3%	?	-3.4%
COc1ccc(Cl)cc1S(=O)(=O)N1CCN=C1c1ccccc1	-0.3	-0.8%	3	-12	6%	.	-2.9%
CC1(c2ccc3ccccc3c2)CCC(=O)O1 (configuration not stated)	0.8	-2.2%	-6	.	.	.	-2.2%
CCOC(=O)[C@]12CCCC=C1N(Cc1cccc3ccccc13)C(=O)[C@H](CC(=O)N1CCC(c3ccccc3)CC1)C2	0.1	0.9%	.	.	.	.	-4.0%
COc1ccccc1OCCNC(=O)C1CC(=O)N(Cc2ccc(C)cc2)C1 (configuration not stated)	-0.5	2.5%	-11	-4	.	.	1.6%
Cc1ccc(NC(=O)CSc2nnc(-c3ccncc3)n2C)cc1C	1.4	-0.8%	11	?	6%	-0.4	0.0%
Cc1ccc2c(c1)CCCN2CC(=O)Nc1cc(S(=O)(=O)N2CCCC2)ccc1Cl	1.8	4.5%	71	4	.	.	-8.7%
CC(=O)NCCNC(=O)CCNC(=O)c1ccc(Cl)cc1	0.5	-0.4%	13	5	19%	1.3	-1.6%
Cc1cccc(CCNC(=O)c2nn(C)c3c2CSc2ccccc2-3)c1	5.3	5.2%	25	.	.	.	-4.2%
CCN(CC)CCCNC(=O)CCC(=O)Nc1ccc2nc(N3CCC(C)CC3)cc(C)c2c1	-0.6	7.0%	-3	1	3%	1.0	3.8%
O=C(CN1C(=O)NC(c2ccccc2)(c2ccccc2)C1=O)NC1CCCC1	0.5	0.4%	22	?	.	.	0.9%
CSCCC(NC(N)=O)C(=O)Nc1ccc(F)c(Cl)c1 (configuration not stated)	-0.8	-1.9%	-3	3	16%	34[activator]	.
Cc1cc(C)c(OCCOCCN2CCCC2)c(C)c1	0.7	-2.2%	-16	.	.	.	.
Cc1ccccc1NS(=O)(=O)c1ccc(Cl)cc1	2.8	8.4%	-19	5	10%	-1.3	.
COc1ccc(-c2oc(NC(=O)CSc3nncn3C)c(C#N)c2-c2ccc(OC)cc2)cc1	2.3	-1.2%	-22	1	23%	-0.9	120%
CC(C)(C)NC(=O)CN(C(=O)C(=O)Nc1ccc2c(c1)OCCO2)C1CC1	-0.4	0.5%	9	?	18%	1.6	.
CCCn1nc(C(=O)OCC(=O)Nc2cccc(OC)c2)c2ccccc2c1=O	5.5	-0.5%	42	-9	10%	-3.0	.

Single records, from the list above.
Results for `Cc1ccccc1NS(=O)(=O)c1ccc(Cl)cc1` → TRPML1 agonist: 2.8; PINK1 modulator: 8.4%; TRPML1 blocker: -19; TRPV1 PAM: 5; Sfp PPTase inh: 10%; Menin MLL FP FL: -1.3; ClpP mod: .
Results for `Cc1ccc(NC(=O)CSc2nnc(-c3ccncc3)n2C)cc1C` → TRPML1 agonist: 1.4; PINK1 modulator: -0.8%; TRPML1 blocker: 11; TRPV1 PAM: ?; Sfp PPTase inh: 6%; Menin MLL FP FL: -0.4; ClpP mod: 0.0%
